PABP FP inh: PABP-poly(A) binding inhibition | AID 2014 | 1% of 290,000 active | inhibition, % at 35 µM | PABP-poly(A) RNA binding, fluorescence polarization | P11940;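 active = 50% or more with normal probe brightness, or confirmed in later tests; inconclusive = above 50% with abnormal brightness, or retests that disagree; inactive = below 50% or failed in later tests; about a fifth of its hits are not listed in these tables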;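 also: calls also rest on retests at 20 µM and on dose response follow-up; controls were probe without protein and protein plus probe with vehicle; some compounds called inactive have numbers as strong as hits; many hits fall short of the cut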
Target sequence (P11940 whole entry, looked up): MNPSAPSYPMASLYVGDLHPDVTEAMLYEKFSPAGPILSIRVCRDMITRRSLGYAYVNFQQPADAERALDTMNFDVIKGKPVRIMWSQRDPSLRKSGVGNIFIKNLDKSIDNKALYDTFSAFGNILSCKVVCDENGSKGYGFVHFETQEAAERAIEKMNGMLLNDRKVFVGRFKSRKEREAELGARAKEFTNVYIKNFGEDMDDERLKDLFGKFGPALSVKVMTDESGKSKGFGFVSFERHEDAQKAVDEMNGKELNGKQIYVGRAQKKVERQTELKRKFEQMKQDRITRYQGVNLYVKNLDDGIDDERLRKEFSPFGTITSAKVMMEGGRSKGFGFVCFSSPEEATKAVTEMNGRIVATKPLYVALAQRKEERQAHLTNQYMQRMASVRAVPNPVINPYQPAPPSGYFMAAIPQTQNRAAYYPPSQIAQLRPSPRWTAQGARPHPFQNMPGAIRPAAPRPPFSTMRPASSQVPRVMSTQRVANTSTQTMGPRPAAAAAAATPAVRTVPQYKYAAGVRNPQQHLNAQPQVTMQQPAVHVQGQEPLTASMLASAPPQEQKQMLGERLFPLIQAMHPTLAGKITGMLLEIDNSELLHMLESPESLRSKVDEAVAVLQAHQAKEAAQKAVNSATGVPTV
Rce1 inh: blocks yeast Ras-converting enzyme. 0.27% of 290,000 active. yeast membranes, quenched prenylated peptide cleavage fluorescence. Q03530. AID 2563. calls only;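 active = fall in fluorescence gain of 50% or more versus controls, with final raw signal at or below 3038400; inconclusive = same 50% fall but final raw signal above 3038400; inactive = fall in fluorescence gain under 50%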;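 also: plate controls were neutral control wells for no effect and wells lacking membranes for full effect; tested at 10 µM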
Target sequence (Q03530 whole entry, looked up): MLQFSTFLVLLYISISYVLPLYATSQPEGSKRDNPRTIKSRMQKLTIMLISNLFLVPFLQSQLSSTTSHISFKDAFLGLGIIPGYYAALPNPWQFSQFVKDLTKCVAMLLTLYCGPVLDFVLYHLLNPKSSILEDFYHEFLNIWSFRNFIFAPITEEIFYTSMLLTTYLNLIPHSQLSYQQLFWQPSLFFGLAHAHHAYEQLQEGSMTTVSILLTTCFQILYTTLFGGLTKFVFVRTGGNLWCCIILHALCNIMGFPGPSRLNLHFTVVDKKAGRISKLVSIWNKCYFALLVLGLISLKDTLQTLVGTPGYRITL
UUG fidelity: modulators of start codon recognition fidelity in yeast; S. cerevisiae UUG-firefly luciferase reporter, luminescence/redox ratio; activity score, % at 18.7 µM; 0.13% of 350,000 active;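 active = replicate mean at a twofold rise or more, about +100% in these data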;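 also: firefly luciferase made from a UUG start codon reports start codon fidelity; reporter light over untreated wells divided by growth signal over untreated wells; some hits fall short of that in this replicate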
CSC inhib: blocks cancer stem cells. inhibition, % at 7.5 µM. cancer stem cell-like cells viability, luminescence. AID 2717. 1.1% of 300,000 active;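 active = mean at 75% or more and at least half the replicates too; inconclusive = mean and replicates disagree; tested in HMLE shEcad cells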;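 also: 0% = median of negative and 100% = median of positive control wells; the first replicate is given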
Env fusion inh: HIV envelope-mediated fusion inhibition; inhibition, % at 12.3 µM; AID 651610; HeLa-JRFL Env/CEM21 cell fusion, luciferase; 1.1% of 360,000 active;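 active = mean replicate inhibition score of at least 50 and every replicate individually at or above 50; inconclusive = only one of the two criteria met; inactive = mean below 50 and not all replicates reaching 50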;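 also: 0% = plate neutral controls and 100% = maraviroc near 300 nM; one replicate is shown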
MT1-MMP act inh: blocks activation of human MT1-MMP; 0.061% of 360,000 active; HT1080 RFP-PRO-GFP cells, GFP/RFP ratio fluorescence, overnight; percent of plate control window, DMSO zero; AID 651647; GFP/RFP ratio change, % at 20 µM; P50281;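 active = GFP/RFP ratio change of at least 30% with cell ATP level not reduced by more than half and red fluorescence within 50% of control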; also: strong numbers were not always called active
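Compound: 20 µM single dose, 1% DMSO / System: HT1080 RFP-PRO-GFP cells / Controls: DMSO and RFP-L50D-GFP cell wells / Read-out basis: GFP/RFP fluorescence ratio / Schedule: overnight compound exposure at 37 °C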
eIF4H inh: inhibitors of RNA binding by human eIF4H; Q15056; eIF4H fluorescence polarization binding assay; inhibition, % at 35 µM; 0.94% of 290,000 active;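 active = 50% or more with normal probe brightness, or confirmed in later tests; inconclusive = above 50% with abnormal brightness, or retests that disagree; inactive = below 50% or failed in later tests; about a fifth of its hits are not listed in these tables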;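 also: calls also rest on retests at 20 µM and on dose response follow-up; 0% = protein and probe with vehicle and 100% = probe without protein; strong numbers were not always called active; many hits fall short of the cut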
MT1-MMP act inh RFP: also measured in MT1-MMP act inh; calls as there; RFP signal change, %; measured here: RFP expression control read;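 0 = vehicle wells; hits needed this value within 50% of zero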
The depositor's hits bear a star; i = inactive; ? = inconclusive; nt = not tested or not shown.

SMILES	PABP FP inh	Rce1 inh	UUG fidelity	CSC inhib	Env fusion inh	MT1-MMP act inh	MT1-MMP act inh RFP	eIF4H inh
CN(C(=O)COC(=O)c1ccccc1NCc1ccco1)c1c(N)n(Cc2ccccc2)c(=O)[nH]c1=O	nt	i	nt	-12	-1	-5	-7	nt
COc1ccccc1CN1CCNC(=O)C1CC(=O)N(C)Cc1cnccn1 (stereo not given)	2	i	nt	nt	8	1	7	-1
CC1CCCC(C)N1C(=O)COC(=O)c1nn(C)c(=O)c2ccccc12 (stereo not given)	4	i	1	-17	nt	2	2	-10
CCN(CC)S(=O)(=O)c1ccc(NC(=O)c2cccnc2Cl)c(NC(=O)c2cccnc2Cl)c1	-7	i	nt	-30	-56	-1	-16	2
Cc1c(NC(=O)c2cc(-c3ccc(Cl)cc3)on2)c(=O)n(-c2ccccc2)n1C	1	i	-20	-14	-4	-3	-4	-11
Cc1cccc(NCN2C(=O)c3ccccc3C2=O)c1	-1	i	-16	12	nt	11	2	-3
CCn1ncc(Br)c1C(=O)Nc1ccc(F)c([N+](=O)[O-])c1	2	i	-5	-7	12	0	2	2
CCOC(=O)COc1ccc(S(=O)(=O)NCc2ccncc2)cc1	2	nt	11	-2	nt	0	-21	-8
CCCS(=O)(=O)N1CCCC(C(=O)NCCCN2CCN(c3ccc(F)cc3)CC2)C1 (stereo not given)	2	i	3	-2	nt	2	-2	-3
O=C(Cc1csc(N2CCOCC2)n1)N/N=C/c1ccc(F)cc1	10	i	-25	-5	2	-5	2	-3
CCc1ccc(C(=O)N2CCC(c3nc4ccccc4s3)CC2)cc1	-6	i	5	-15	-3	3	1	-5
NC(N)=NCC(O)CN(c1ccccc1)c1ccccc1 (stereo not given)	1	i	-9	-6	-20	0	-1	2
C/C=C(\C)C(=O)Nc1cccc(C2=NOC3(C2)C[C@@H](C(N)=O)N(C(=O)/C(C)=C/C)C3)c1 (stereo not given in full)	11	i	9	-10	16	-3	3	-8
CCCC(=O)NC(C)C(c1cccs1)N1CCN(c2ccccc2)CC1 (stereo not given)	-16	i	-11	-8	nt	-10	0	-4
CN(C)C(CNC(=O)c1ccc(NS(=O)(=O)c2ccc(F)cc2)cc1)c1ccco1 (stereo not given)	nt	i	-2	-5	-11	4	0	nt
O=C(CN1C(=O)COc2ccccc21)NCCCN1CCCCC1	nt	i	-2	-6	-5	-1	1	nt
Cc1ccc(-n2c(C)cc(C(=O)CSc3nnc4ccccn34)c2C)cc1	5	i	nt	10	24	-5	-24	2
Cc1ccc(SCCC(=O)N2CCCC2)cc1	7	i	-8	-10	nt	8	3	-8
O=Cc1ccc(OCC(=O)Nc2ccccc2C(F)(F)F)cc1	-4	i	-16	-11	-42	1	-3	-6
O=C(COC(=O)c1ccccc1O)NCCc1c[nH]c2ccccc12	nt	nt	-6	-3	nt	3	1	nt
N#Cc1cnn2c(-c3ccc(Cl)cc3Cl)ccnc12	-2	i	nt	-19	22	-1	-2	2
Cc1cccn2c(=O)c(/C=C(\C#N)S(=O)(=O)c3ccccc3)c(N3CCN(c4ccccc4)CC3)nc12	3	i	-24	-9	2	1	0	4
COc1ccc(-c2cc(C(=O)NCCc3ccccc3)no2)cc1OC	1	i	nt	2	-64	6	0	3
Cc1nnc(NC(=O)CSc2nc3c(c(=O)n2CCc2ccccc2)SC(C)C3)s1 (stereo not given)	-10	i	-13	14	8	1	4	-4

Laid out differently: entries from further up
molecule | PABP FP inh | Rce1 inh | UUG fidelity | CSC inhib | Env fusion inh | MT1-MMP act inh | MT1-MMP act inh RFP | eIF4H inh
NC(N)=NCC(O)CN(c1ccccc1)c1ccccc1 (stereo not given) | 1 | i | -9 | -6 | -20 | 0 | -1 | 2
C/C=C(\C)C(=O)Nc1cccc(C2=NOC3(C2)C[C@@H](C(N)=O)N(C(=O)/C(C)=C/C)C3)c1 (stereo not given in full) | 11 | i | 9 | -10 | 16 | -3 | 3 | -8
CCCC(=O)NC(C)C(c1cccs1)N1CCN(c2ccccc2)CC1 (stereo not given) | -16 | i | -11 | -8 | nt | -10 | 0 | -4
CN(C)C(CNC(=O)c1ccc(NS(=O)(=O)c2ccc(F)cc2)cc1)c1ccco1 (stereo not given) | nt | i | -2 | -5 | -11 | 4 | 0 | nt
O=C(CN1C(=O)COc2ccccc21)NCCCN1CCCCC1 | nt | i | -2 | -6 | -5 | -1 | 1 | nt
Cc1ccc(-n2c(C)cc(C(=O)CSc3nnc4ccccn34)c2C)cc1 | 5 | i | nt | 10 | 24 | -5 | -24 | 2
Cc1ccc(SCCC(=O)N2CCCC2)cc1 | 7 | i | -8 | -10 | nt | 8 | 3 | -8
O=Cc1ccc(OCC(=O)Nc2ccccc2C(F)(F)F)cc1 | -4 | i | -16 | -11 | -42 | 1 | -3 | -6
O=C(COC(=O)c1ccccc1O)NCCc1c[nH]c2ccccc12 | nt | nt | -6 | -3 | nt | 3 | 1 | nt
N#Cc1cnn2c(-c3ccc(Cl)cc3Cl)ccnc12 | -2 | i | nt | -19 | 22 | -1 | -2 | 2
Cc1cccn2c(=O)c(/C=C(\C#N)S(=O)(=O)c3ccccc3)c(N3CCN(c4ccccc4)CC3)nc12 | 3 | i | -24 | -9 | 2 | 1 | 0 | 4
COc1ccc(-c2cc(C(=O)NCCc3ccccc3)no2)cc1OC | 1 | i | nt | 2 | -64 | 6 | 0 | 3

Following part.
SMILES	PABP FP inh	Rce1 inh	UUG fidelity	CSC inhib	Env fusion inh	MT1-MMP act inh	MT1-MMP act inh RFP	eIF4H inh
O=C(CSc1nnc(C2CC2)n1C1CC1)c1cccs1	nt	nt	-17	3	nt	-5	1	nt
CCC(C)n1c(SCC(=O)NC2CCCC2)nc2ccccc2c1=O (stereo not given)	nt	i	-12	-7	3	-2	-1	nt
CC(Oc1ccc2c3c(c(=O)oc2c1)CCC3)C(=O)NCC1CCC(C(=O)O)CC1 (stereo not given)	8	i	-1	6	nt	-1	2	8
C=CCn1c2ccccc2c(=O)c2cc(C#Cc3cc(OC)cc(OC)c3)ccc21	nt	nt	-3	?	-29	9	0	nt
Cc1ccc(S(=O)(=O)N(Cc2ccc(Cl)cc2)c2ccccc2C(=O)O)cc1	-1	i	5	6	0	-5	0	-6
CC1CC2(CCCCC2)N2C(=O)C(=O)c3cccc1c32 (stereo not given)	-5	i	-30	6	nt	-1	2	-9
Cn1c(=O)c2c(SCC(=O)N3CCCc4ccccc43)nc(C3CC3)nc2n(C)c1=O	5	i	-13	12	-23	-4	-13	11
N#Cc1c(NCCCO)nc(-c2ccccc2)c2c1CCCC2	4	i	-16	5	nt	-19	-7	0
CC(=NCc1ccccc1)C1=C(O)COC1=O	12	i	1	-5	nt	-1	3	-5
OC(c1ccc(F)c(F)c1)c1nc(-c2cc(F)cc(F)c2)cs1 (stereo not given)	nt	nt	-4	nt	6	2	-1	nt
CCC(C)(C)NC(=O)c1ccc2c(c1)N(CC(=O)NC1CCCC1)C(=O)C(C)(C)O2	1	i	10	nt	-24	2	3	5
Clc1cccc(CN2CCN(c3ncccn3)CC2)c1Cl	14	i	1	5	0	0	-12	15
CC(C)(C)NC(=O)C1CCCN(S(=O)(=O)c2ccc(-n3cnnn3)cc2)C1 (stereo not given)	-2	nt	2	-10	4	3	-2	-1
O=C(CN1CCN(c2ccccc2)CC1)NCc1ccc(F)cc1	-5	i	-11	5	13	-3	-3	-10
CCc1ccc(NC(=O)C2CCCN(S(=O)(=O)c3cnc[nH]3)C2)cc1 (stereo not given)	-7	i	-29	-13	nt	0	2	-8
CCCCN(CC)S(=O)(=O)c1ccccc1	-2	i	-18	-5	-50	0	3	-2
O=C(N/N=C/c1ccccn1)c1ccc(Br)o1	0	i	-7	5	-19	-2	1	1
CC1CCCC(C(=O)OCc2ccccc2)N1 (stereo not given)	16	i	8	0	-2	0	-2	4
COc1ccccc1NS(=O)(=O)c1cccc(C(=O)NCC(c2ccco2)N(C)C)c1 (stereo not given)	nt	i	-8	-12	4	2	3	nt
O=C1NC(c2ccccc2)=C(c2nc3ccccc3s2)C(c2ccc(F)cc2)N1 (stereo not given)	-4	i	0	32	29	-11	-14	-3
Cc1c(C(C)C[C@H](C)O)oc(=O)c2c1Oc1c(C)c(C(C)C[C@H](C)O)oc(=O)c1C2 (stereo not given in full)	nt	nt	9	1	0	3	0	nt
CC/C(Cc1ccccc1)=N/NC(=O)CCn1nnc2ccccc21	0	i	nt	-6	-12	1	4	3
COc1ccc(-n2nnnc2SCC(=O)NC2CCS(=O)(=O)C2)cc1 (stereo not given)	nt	nt	-14	0	nt	1	3	nt
COc1ccc(NC2CCCN(C(=O)c3cc(CC(C)C)nc(N)n3)C2)cc1 (stereo not given)	6	i	-5	-22	0	3	5	-7
O=C(Nc1ccc(F)c(Cl)c1)C1Cc2c(-c3ccco3)ccnc2O1 (stereo not given)	nt	nt	-2	nt	-1	-5	-18	nt
CCOc1ccc(C(=O)Nc2c(C(N)=O)oc3ccccc23)cc1	6	i	-15	nt	-56	1	-2	6
COc1ccc(-c2nc3ccccc3n2OC(C)C(=O)O)cc1 (stereo not given)	-5	i	nt	1	6	4	4	0
CCCNC(=O)CS(=O)(=O)c1ccccc1	1	i	-12	3	6	4	3	2
Cc1nn(-c2ccccc2[N+](=O)[O-])c(=O)c2ccccc12	-4	i	29	-1	11	-2	1	-6
COc1ccc(Cl)cc1NC(=O)CNc1ccc(F)cc1C	1	i	-4	10	-6	1	-3	-3
CC1CCCC(C)N1C(=O)CSc1ccc(-c2ccc3c(c2)OCCO3)nn1 (stereo not given)	-1	i	8	7	3	1	-1	-4
CC(C)c1ccc(/C=C2\SC(N3CCCC3)=NC2=O)cc1	-6	i	nt	-14	12	6	1	-1
CCCc1nc2ccc(NC(=O)c3ccco3)cc2c(=O)n1Cc1ccc(Cl)cc1	3	i	-2	nt	-121	1	-11	-3
COc1ccc(NC(=O)C(=O)NCCN2CCN(C(=O)c3cccs3)CC2)cc1	-4	i	0	1	39	-7	-4	-7
C#CCn1c(=NC(=O)c2cc(Cl)sc2Cl)sc2cc(S(N)(=O)=O)ccc21	-4	i	-20	-2	14	4	-7	-8
O=c1c2cc(N3CCOCC3)ccc2[nH]c(=S)n1CCN1CCCC1	1	i	5	-16	6	-6	0	5
Cc1ccc(Cn2ccc(NC(=O)c3cc(-c4cccs4)on3)n2)cc1	7	i	-11	-5	14	-3	-4	-1
CCOCCCNCc1ccc(OCc2ccccc2C)c(OC)c1	10	i	14	0	18	-6	1	-4
O=S(CC1CC1(Cl)Cl)CC1CC1(Cl)Cl (stereo not given)	10	i	nt	14	20	1	3	4
CC(=O)c1ccc(NC(=O)Nc2ccc([N+](=O)[O-])cc2)cc1	3	i	nt	10	11	2	1	-10
Cn1c(CNc2ccc(Cl)cc2)nnc1SCC#N	-3	i	nt	-7	-3	0	2	-1
C=CCOc1ccc(/C=N/NC(=O)c2c(C)nc3ccc(Cl)cn23)cc1	2	i	-18	2	0	0	-1	10
COc1ccc2cnn(Cc3ccccc3)c(=O)c2c1OC	-7	i	nt	-8	nt	5	5	-1
Cc1ccn2c(CNC(C)c3cn(C)nc3C)c(C(=O)N3CCCCCC3)nc2c1 (stereo not given)	-5	i	-15	-6	3	-4	2	-12

Assay outcomes: PubChem, several laboratories
